# Compound activity deposited in PubChem BioAssay by several laboratories.
# RanGTP-Impb inh – inhibitors of RanGTP-importin-beta interaction, primary screen, biochemical, FRET, CFP-Ran, YFP-importin-beta, homogeneous. Ran GTPase (GTP-bound) - importin-beta complex. cell-free CFP-Ran/YFP-importin-beta FRET ratio. inhibition, % (test concentration not listed). 1.1% of 300,000 active;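 active means most replicates above 15%; inconclusive means exactly half above 15%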;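 further: 0% = DMSO wells and 100% = Ran loaded with GDP instead of GTP; wells of about 40 µL received 100 nL stock; the first replicate is given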
# Calb FLC – C. albicans growth inhibition with fluconazole, primary screen, CaCi-2 strain, Alamar Blue fluorescence; C. albicans CaCi-2 (fluconazole-resistant clinical isolate) + fluconazole, 48 h; AID 1979, 2009; growth inhibition, % (no concentration beside the values); 0.57% of 300,000 active;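 active means most replicates above 75%; inconclusive means exactly half above 75%; inactive means most below 75%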;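 further: all wells also contain fluconazole at 8 µg/ml as a sub-toxic cotreatment; 0% = median of DMSO wells and 100% = median of geldanamycin control wells; wells of about 8 µL received 7.5 nL stock; the first replicate is given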
# A1 inh – caspase 3/7 activation in MEF A1-2A-BIM cells, primary screen, A1 inhibitor project, cell-based, luminescence, HTS; Caspase-Glo 3/7 luminescence, 3 h; percent of clofoctol response, vehicle zero; caspase activation, % (no concentration beside the values); 0.066% of 330,000 active; AID 2462, 2010;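 active means over half of replicate activation scores above 10%, or exactly half above 10 with the replicate mean above 10; inconclusive means replicate mean below 10 yet half the replicates above 10; inactive means over half of replicates below 10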;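 further: wells of about 30 µL received 50 nL stock; many hits fall short of the cut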
# Beta cell apopt – inhibitors of cytokine-induced beta cell apoptosis, primary screen, luminescence; INS-1E cytokine-induced death, ATP luminescence, 48 h; percent of positive-control rescue, neutral wells zero; protection from apoptosis, % (test concentration not listed); 0.8% of 300,000 active; AID 435005, 2010;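 active means all replicates at 75% or more, or half of them and the mean; inconclusive means half reach 75% but not the mean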;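 further: 0% = cytokine-treated negative control wells and 100% = positive control rescue; higher means more ATP so stronger rescue from cytokine killing; wells of about 40 µL received 100 nL stock; the first replicate is given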
# T cruzi repl – inhibitors of intracellular T. cruzi growth, primary screen, luminescence, NIH3T3 host cells. T. cruzi beta-gal in NIH3T3, 90 h. inhibition, % (test concentration not listed). 1.4% of 300,000 active;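 active means mean inhibition across valid replicates above about 55%, limit read from the data; inconclusive means mean below that limit but half or more replicates reach it; inactive means mean below it, under half of replicates reach it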;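 further: signal also drops with host cell toxicity which is not excluded here; 0% = plate median of DMSO wells and 100% = zero luminescence signal; higher percent means less beta-gal luminescence so fewer parasites; stock transfer was 50 nL into about 50 µL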
# Vif TR-FRET – inhibitors of Vif binding to APOBEC3G peptide, primary screen, biochemical, TR-FRET, GST-Vif 1-94, biotin-A3G peptide, dose response retest (AID 1117319) | 0.57% of 260,000 active | inhibition, %, or IC50 in µM where a hit was titrated | Virion infectivity factor (Human immunodeficiency virus type 1 group M subtype B (isolate … | TR-FRET GST-Vif / biotin-A3G peptide binding; higher % means a stronger effect; test concentration not given here; strong numbers were not always called active;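 active means above the screen mean plus three standard deviations and confirmed in dose response; inconclusive means results disagree or hit not tested in dose response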;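 further: Vif residues 1-94 fused to GST binding biotinylated APOBEC3G peptide 110-148; 0% = full assay without inhibitor and 100% = GST in place of GST-Vif; retest series ran down from 100 µM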
# LANA-H2B inh – blockers of LANA interaction with H2A/H2B – biochemical, FP readout, HTS, primary screen | Protein LANA1 (Human herpesvirus 8 type P (isolate GK18)), Q9QR71 | cell-free LANA-H2A/H2B peptide, fluorescence polarization | inhibition, % (concentration not given with the values) | 0.6% of 320,000 active; in the data active means inhibition mostly above about 10%, no sharp cut-off; inactive means mostly below about 6.7%;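 further: stock transfer was 7.5 nL into about 10 µL; 0% = median of vehicle wells and 100% = median of positive control wells; one replicate is shown; the record names a cut of 25% in any replicate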
# Target sequence (Q9QR71 whole entry, looked up): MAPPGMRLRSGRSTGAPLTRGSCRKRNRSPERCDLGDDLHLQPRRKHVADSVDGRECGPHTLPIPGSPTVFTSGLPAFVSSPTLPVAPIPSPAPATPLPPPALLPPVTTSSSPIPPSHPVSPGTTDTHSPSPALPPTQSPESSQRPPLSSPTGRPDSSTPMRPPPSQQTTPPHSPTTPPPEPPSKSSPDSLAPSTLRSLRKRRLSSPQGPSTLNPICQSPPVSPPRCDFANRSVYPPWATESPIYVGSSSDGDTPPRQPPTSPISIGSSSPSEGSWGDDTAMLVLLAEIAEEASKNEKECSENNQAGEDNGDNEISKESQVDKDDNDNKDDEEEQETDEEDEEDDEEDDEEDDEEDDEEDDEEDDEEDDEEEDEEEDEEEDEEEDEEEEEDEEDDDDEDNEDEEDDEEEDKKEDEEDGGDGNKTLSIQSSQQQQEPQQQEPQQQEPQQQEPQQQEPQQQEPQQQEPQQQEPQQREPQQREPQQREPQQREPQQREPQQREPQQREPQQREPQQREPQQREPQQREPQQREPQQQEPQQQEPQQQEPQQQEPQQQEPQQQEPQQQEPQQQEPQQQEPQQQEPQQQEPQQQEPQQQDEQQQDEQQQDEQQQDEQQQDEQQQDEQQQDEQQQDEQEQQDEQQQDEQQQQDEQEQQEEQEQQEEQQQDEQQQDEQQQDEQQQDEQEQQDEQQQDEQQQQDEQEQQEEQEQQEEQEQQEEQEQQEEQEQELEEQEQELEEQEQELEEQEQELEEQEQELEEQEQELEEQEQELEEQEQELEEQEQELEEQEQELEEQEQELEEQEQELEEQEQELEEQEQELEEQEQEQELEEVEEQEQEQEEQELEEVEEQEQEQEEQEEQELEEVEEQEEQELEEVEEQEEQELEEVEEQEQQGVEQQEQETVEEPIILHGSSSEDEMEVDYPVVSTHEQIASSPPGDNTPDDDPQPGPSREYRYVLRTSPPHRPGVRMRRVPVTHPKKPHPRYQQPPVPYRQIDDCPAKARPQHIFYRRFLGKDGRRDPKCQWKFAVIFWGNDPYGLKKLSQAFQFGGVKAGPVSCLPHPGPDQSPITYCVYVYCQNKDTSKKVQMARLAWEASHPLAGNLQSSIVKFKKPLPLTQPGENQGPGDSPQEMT
# MLL AF4-AF9 inh – inhibitors of AF4 peptide binding to AF9, primary screen, biochemical, AlphaScreen, biotin-AF4 peptide, FLAG-AF9, single point; Protein AF-9 (Homo sapiens), P42568; inhibition, % at 10 µM; 0.47% of 350,000 active;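 active means every replicate reaching a set inhibition limit, whatever the replicate mean, cut at about 25% in these data; inconclusive means mean inhibition reaches that limit but some replicates miss it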;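 further: 0% = plate neutral control median and 100% = total signal loss; the record names both 10 and 1 µM as test concentration; the first replicate is given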
# * marks the source's active call; other numbers are inactive results; u = inconclusive; x = not tested or not shown; ! = not confirmed by another sample.
nr	SMILES	LANA-H2B inh	Beta cell apopt	T cruzi repl	A1 inh	RanGTP-Impb inh	Calb FLC	Vif TR-FRET	MLL AF4-AF9 inh
1	Cc1ccc(SCCCn2cncn2)cc1	-5.1	-5.1	-6.8	0.5	1.0	-9.9	3.8%	x
2	Cc1ccc(C2(C)NC(=O)N(CC(=O)NNC(=O)c3ccccc3F)C2=O)cc1 (stereo not given)	21.5*	-6.8	x	0.3	x	x	-8.3%	-1.3
3	Cc1ccccc1CSc1nc2[nH]ncc2c(=O)[nH]1	-3.7	-4.6	-2.4	-0.1	0.1	6.0	-1.1%	-1.7
4	COc1ccc(N(CN2C(=O)C3CCCCC3C2=O)C(=O)c2ccco2)cc1 (stereo not given)	1.8	-3.3	-0.7	0.9	1.2	-0.4	x	-2.3
5	O=C(CSc1nnc(-c2ccc(O)cc2)n1Cc1ccco1)c1cccs1	-7.8	10.8	0.5	0.8	-1.6	-0.6	16.6%	x
6	COc1ccc(N2CCN(C(CNC(=O)OCc3ccccc3)c3ccco3)CC2)cc1 (stereo not given)	0.2	-2.9	23.7	-0.1	-0.2	-24.0	x	11.5
7	C=CCSc1nnc2c(n1)OC(c1ccccn1)N(C(C)=O)c1ccccc1-2 (stereo not given)	5.1	-1.7	-5.3	2.5	-0.1	0.0	1.4%	x
8	CCOc1ccc(S(=O)(=O)Nc2ccccc2C(=O)N2CCOCC2)cc1	-0.7	-6.2	-4.8	-0.3	3.4	7.3	x	-0.6
9	COc1cc(CNn2c(C)n[nH]c2=S)cc(Br)c1OCC(=O)NC(C)(C)C	3.7	7.1	5.5	0.5	2.8	3.7	0.6%	-7.1
10	O=C(CNC(=O)c1ccc(Cl)cc1)NNc1c(F)c(F)cc(F)c1F	-0.7	-0.3	x	0.5	x	x	6.0%	0.0
11	Cc1c(CN2CCc3c([nH]c4ccccc34)C2CC(C)C)cnn1C (stereo not given)	6.6	-2.3	-9.8	1.3	34.6*	-2.6	-7.5%	4.6
12	Cc1ccc(CSc2nc3c(cc2C#N)CCC3)cc1	3.3	-0.5	8.2	-0.6	2.5	2.4	-36.5%	x
13	C=CCNC(=O)COC(=O)COc1ccc(Cl)cc1C	3.1	2.9	-11.2	-0.2	-0.6	-7.5	-3.6%	x
14	N#Cc1ccc(NC(=O)CCc2ccc(S(=O)(=O)N3CCOCC3)cc2)cc1	2.1	-4.2	14.1	0.7	2.0	-17.7	29.4%	x
15	CC1CCCC(C)N1C(=O)COc1ccc(-c2nnco2)cc1 (stereo not given)	1.0	-4.6	-16.1	0.8	u	-5.7	4.4%	x
16	OCCC1CN(Cc2ccn[nH]2)CCN1Cc1ccc(F)c(F)c1 (stereo not given)	-0.6	-6.8	-6.0	0.6	3.5	-4.9	-0.4%	-0.9
17	Nc1ncnc(NNC(=O)CNC(=O)c2c(F)cccc2Cl)c1[N+](=O)[O-]	1.9	-1.3	1.7	0.7	3.9	6.9	-6.2%	3.0
18	Cc1ccccc1NC(=O)COC(=O)/C=C/c1cn(-c2ccccc2)nc1-c1cccnc1	1.4	-5.4	-7.3	0.8	2.6	-24.2	-10.2%	x
19	CCOc1ccc(C(=O)c2cccs2)cc1	-1.1	-3.1	1.9	-0.7	0.9	4.9	17.2%	x
20	CCN(CC)C(=O)Cc1cn(C)c2ccccc12	0.2	-5.4	-7.9	0.9	-3.6	0.4	-1.2%	-7.7
21	COc1ccc(CCNC(=O)c2ccc(=O)[nH]n2)cc1OC	4.0	0.0	-8.6	0.1	5.2	-6.3	16.7%	x
22	COc1ccc(S(=O)(=O)NC(N)=NCCc2ccccc2)cc1	1.6	-2.9	3.1	-0.3	x	x	3.0%	-2.9
23	CC(=O)NC(NC(C)=O)c1ccc(N(C)C)cc1	2.5	-3.6	-8.0	-0.4	u	-14.5	5.2%	x
24	Cc1noc(C)c1C(=O)Nc1sc2c(c1C(N)=O)CCC2	-0.6	8.2	23.4	1.4	25.7*	26.5	-29.8%	x
25	Cc1cnc(NC(=O)Cc2c[nH]c3ccccc23)s1	2.8	0.0	-2.7	-0.1	-3.5	-30.3	-6.5%	1.1
26	Cc1c(C(=O)OCCN2CCCCC2)oc2ccccc12	-1.8	3.5	-9.5	-0.7	u	-11.1	7.6%	x
27	COc1ccc(CN(CC2CCCO2)C(=O)CN2C(=O)C(C)Oc3ccc(C)cc32)cc1OC (stereo not given)	-2.7	-0.9	10.1	-0.4	-1.5	8.2	2.6%	x
28	COc1cc(S(=O)(=O)N2CCN(C)CC2)c(OC)cc1Br	2.8	1.8	-0.3	-0.6	-0.2	0.9	2.3%	x
29	CCOc1ccccc1NC(=O)C1CCN(S(=O)(=O)c2cccc3cccnc23)CC1	-1.2	-6.7	3.5	0.0	0.0	3.2	-0.6%	2.4
30	COc1ccc(OC)c(S(=O)(=O)NCc2ccccn2)c1	-7.9	-8.3	-1.1	0.6	-2.6	19.1	x	-2.4
31	O=C(O)c1cc([N+](=O)[O-])ccc1NCCc1ccccc1	-5.6	-3.0	5.3	-0.6	0.2	4.8	2.8%	-1.3
32	CC(OC(=O)/C=C/c1cccc(F)c1)C(=O)NC1CCCCC1C (stereo not given)	-3.0	-3.3	1.8	0.7	0.3	9.2	-5.0%	-2.4
33	CNC(=S)N1CCc2cc(OC)c(OC)cc2C1	3.4	-4.4	-27.1	-0.7	-0.2	u	12.0%	x
34	CCn1c(=O)c2cc(C(=O)N(C)c3ccc(OC)cc3OC)sc2c2ccccc21	-3.3	0.8	33.2	0.4	-2.3	9.8	-4.7%	4.7
35	N/C(=N/OCc1cccc([N+](=O)[O-])c1)c1nonc1N	-3.2	-7.5	x	-1.5	x	x	x	-1.7
36	CC1(C)C(=O)Nc2ccccc2N1C(=O)COC(=O)Cc1c(F)cccc1Cl	-41.1	-1.3	-3.2	1.3	-0.6	1.6	11.6%	-4.5
37	Cc1onc(-c2ccccc2)c1C(=O)NC1CCC(C)CC1 (stereo not given)	-4.4	-1.1	x	0.3	x	x	2.1%	-0.1
38	Cc1csc2c(N3CCN(C(=O)Nc4ccccc4)CC3)ncnc12	1.3	-2.6	-14.4	-0.6	-0.3	0.0	-5.1%	x
39	CCC(C(=O)NC(CC(=O)O)c1ccc(Cl)cc1)c1ccccc1 (stereo not given)	-10.2	-5.0	-4.7	-0.4	1.5	6.6	-14.4%	-1.3
40	COc1cc(C2Nc3cccc4cccc(c34)N2)cc(OC)c1O	-2.7	5.2	x	-0.8	x	x	<4.18µM*!	0.6
41	O=C(CN1CCN(c2ccc(F)cc2)CC1)NCc1cccs1	-5.0	-2.9	-4.1	0.7	0.5	12.6	3.9%	2.7
42	Cc1nn(-c2ccccc2)c(Cl)c1C1C(C#N)=C(N)Oc2n[nH]c(C)c21 (stereo not given)	0.6	1.6	-13.7	-0.1	2.6	7.0	1.4%	x
43	O=C(NC(=S)Nc1ccc(S(=O)(=O)N2CCCC2)cc1)C1CCC1	-0.8	-10.6	7.7	0.2	3.9	-1.0	1.4%	x
44	COC(=O)CNC(=O)C(Cc1c[nH]c2ccccc12)NC(=O)OC(C)(C)C (stereo not given)	1.5	-0.1	x	1.3	x	15.9	10.9%	x
45	C[C@H](NC(=O)c1ncn(C)c1C(=O)N[C@@H](C)c1ccccc1)c1ccccc1	-3.5	-1.2	x	1.5	x	x	x	3.3
46	O=Cc1cccn1-c1cccc([N+](=O)[O-])c1	-4.3	4.1	-11.4	-0.4	0.6	-7.8	u	-1.4
47	CCC(NC(=O)NNC(=O)c1ccncc1)(C(F)(F)F)C(F)(F)F	2.0	-1.4	3.4	0.0	-2.4	-2.3	4.4%	x
48	CN(C(=O)c1ccc(OC2CCN(CCc3ccccc3)CC2)cc1)C1CCCCC1	-0.4	0.4	36.3	-1.3	-1.5	-4.4	3.3%	-4.3
49	O=C(CN1CCCCCC1)Nc1cccc(NC(=O)CN2CCCCCC2)c1	-2.8	-4.2	-8.8	0.8	8.2	7.6	5.0%	0.7
50	CCC(=O)Nc1cccc(-n2nnnc2SCC(=O)N2CCCCC2)c1	2.6	0.7	1.0	0.0	-2.8	-14.8	-7.8%	-0.3
51	CCOc1cc(/C=N/O)cc(Br)c1OCc1ccc(Cl)cc1	-0.1	9.7	15.0	1.0	4.6	0.1	7.4%	x
52	Cc1cc(Nc2ccccc2)c2c([N+](=O)[O-])ccc(C)c2n1	-4.3	-5.9	61.0*	0.5	u	-2.2	3.2%	x
53	Cc1cccc(/C=C/c2onc(C)c2[N+](=O)[O-])n1	1.5	-7.2	31.5	-0.1	1.7	-7.5	x	8.7
54	CCC(=O)c1ccc(Oc2ccc(C(=O)c3ccc(C)cc3)cc2[N+](=O)[O-])cc1	-1.2	1.3	25.6	-0.2	-1.0	1.6	-0.8%	-2.0
55	CCCCNC(=O)c1sc(=S)n2c1[nH]c(=O)c1ccc(C(=O)NCCc3ccc(OC)c(OC)c3)cc12	-8.2	-5.1	-14.0	0.2	2.3	-4.1	x	x
56	CC(C)C(NC(=O)c1ccc(F)cc1)C(=O)NC1(C)CCS(=O)(=O)C1 (stereo not given)	0.6	1.2	x	0.1	x	x	-1.4%	-0.8
57	CCOC(=O)C1=C(CC)OC(N)=C(C#N)C1c1ccc(OC)c(OC)c1OC (stereo not given)	-5.8	-21.0	-19.4	0.7	1.7	-1.5	6.4%	-0.2
58	O=S(=O)(NCC1(N2CCOCC2)CCCCC1)c1ccc(Cl)cc1C(F)(F)F	-1.6	2.2	21.4	-0.5	u	-10.0	-2.6%	-1.0
59	CN(CC(=O)Nc1c(Cl)cccc1Cl)C(=O)C1=COCCO1	-2.9	-3.2	-2.4	-0.1	1.1	-1.3	6.5%	6.5

# An excerpt from above, limited to Calb FLC and LANA-H2B inh:
cpd | mol | Calb FLC | LANA-H2B inh
53 | Cc1cccc(/C=C/c2onc(C)c2[N+](=O)[O-])n1 | -7.5 | 1.5
54 | CCC(=O)c1ccc(Oc2ccc(C(=O)c3ccc(C)cc3)cc2[N+](=O)[O-])cc1 | 1.6 | -1.2
55 | CCCCNC(=O)c1sc(=S)n2c1[nH]c(=O)c1ccc(C(=O)NCCc3ccc(OC)c(OC)c3)cc12 | -4.1 | -8.2
56 | CC(C)C(NC(=O)c1ccc(F)cc1)C(=O)NC1(C)CCS(=O)(=O)C1 (stereo not given) | x | 0.6
